# StopGo reporter = FMDV 2A StopGo reporter, luciferase signal; human cells with a luciferase reporter of 2A StopGo recoding; control for the full effect not named in the record; AID 1159524; Potency, µM (top dose mostly 57.9 µM), for inactives: at the highest dose signal change, negative = less light; actives 1.2% (n = 410,000); active = well fitted falling curve with a large enough effect; inconclusive = small, poorly fitted or top-dose-only effect; inactive = no such curve, though single readings can be large or run the other way; tested in HEK293T cells; also: nearly all actives have a fitted effect of over 45% in size; luciferase light after 4 h
# RE007 growth inh = less growth of the S. pombe RE007 Vpr strain. S. pombe RE007 Vpr strain, BacTiter-Glo ATP luminescence, 24 h; control for the full effect not named in the record. Potency, µM (doses to about 92.2 µM), for the others: at the top dose activity change, negative = less growth. actives 0.21% (n = 360,000). AID 651644; active = well fitted falling curve with a large enough effect; inconclusive = small, poorly fitted or top-dose-only effect; inactive = no such curve, though single readings can be large or run the other way;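 also: nearly all actives have a fitted effect of over 50% in size; the assay follows cell death caused by Vpr and the record does not say whether a fall means rescue or toxicity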
#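 Fission yeast strain RE007, carrying one chromosomally integrated HIV-1 vpr copy, was seeded at OD 0.01 in PMG+AL medium with 23 nL pinned compound. After 24 h at 30 °C and 99% humidity, viability was read by BacTiter-Glo luminescence.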
# Starred values were filed as active, the others as inactive; u = inconclusive; [ ] = another dose, or the depositor's remark. % is scaled to controls: 0 for no effect and ±100 for the full control effect; potency is read from the fitted curve at half-maximal effect. This is a subset; count on the stated rates, not on these rows.
# Values run as follows: StopGo reporter | RE007 growth inh
- Cc1ccc(S(=O)(=O)N2C[C@]3(O)C[C@@H]4C(=O)N(c5ccccc5)C(=O)[C@@H]4C[C@]3(OC(=O)NCc3ccccc3)C2)cc1
    -20% | -6%
- C[C@@H]1CC[C@H](Cc2ccc(-n3cccc3)cc2)N1C(=O)OC(C)(C)C
    -15% | -7%
- Cn1nc(C(C)(C)C)cc1C(=O)N1CCCCC1c1cc(C(=O)Nc2ccc3c(c2)OCO3)no1 (configuration not stated)
    u | -13%
- COc1ccc(-c2csc(NC(=O)CCNC(=O)c3ccco3)n2)cc1
    -22% | -5%
- O=C(NCCN1CCOCC1)c1ccc2c(c1)N(Cc1cccc(Cl)c1)C(=O)c1ccccc1S2(=O)=O
    -19% | 7%
- CNC(=O)c1ccc(CN(C)C(=O)c2cccc(S(=O)(=O)N3CCc4ccccc4C3)c2)cc1
    -17% | 1%
- Nc1nc2c(ncn2[C@@H]2O[C@H](CNS(=O)(=O)N3CCc4ccccc4C3)[C@@H](O)[C@H]2O)c(=O)[nH]1
    -11% | -1%
- CC[C@@H](CO)C1CC2NC3CC4(c5ccccc5N(C)[C@@H]24)C(O)C31 (some centres not stated)
    -13% | -13%
- COc1cc(C)c(/C=C/C(C)=C/C=C/C(C)=C/C(=O)O)c(C)c1C
    u | 3%
- CCCCN1C(=O)C(=O)NC[C@H]1Cc1cccc2ccccc12
    -9% | 27%
- COc1ccc(-c2nc3ccc(Cl)cn3c2Cc2cccc(Cl)c2)cc1OC
    -3% | 2%
- CC1(c2nnnn2-c2ccc3c(c2)OCCO3)CCC(=O)N1C1CC1 (configuration not stated)
    -17% | -9%
- CCCCCCCCN1C(=O)[C@H](CC(=O)NCc2ccc(C)o2)C[C@@]2(C(=O)OC)CC(C)(C)CC=C12
    -25% | -15%
- O=c1c(-c2ccccc2)nc2ccccc2n1C(c1ccccc1)c1nc2ccccc2[nH]1 (configuration not stated)
    0% | 0%
- COc1ccc(/C=C/CN2CCC(C(=O)NC(c3ccc(F)cc3)c3ccc4ccccc4n3)CC2)cc1 (configuration not stated)
    -28% | 1%[18.4 µM]

# Profiles, quoted from the list. Screens in order: StopGo reporter, RE007 growth inh
# Listed for COc1ccc(-c2nc3ccc(Cl)cn3c2Cc2cccc(Cl)c2)cc1OC = -3%, 2%
# Listed for COc1ccc(-c2csc(NC(=O)CCNC(=O)c3ccco3)n2)cc1 = -22%, -5%

# Exported with bars between the fields: part of the list above
Molecule | StopGo reporter | RE007 growth inh
CCCCN1C(=O)C(=O)NC[C@H]1Cc1cccc2ccccc12 | -9% | 27%
Cc1ccc(S(=O)(=O)N2C[C@]3(O)C[C@@H]4C(=O)N(c5ccccc5)C(=O)[C@@H]4C[C@]3(OC(=O)NCc3ccccc3)C2)cc1 | -20% | -6%
CNC(=O)c1ccc(CN(C)C(=O)c2cccc(S(=O)(=O)N3CCc4ccccc4C3)c2)cc1 | -17% | 1%
O=C(NCCN1CCOCC1)c1ccc2c(c1)N(Cc1cccc(Cl)c1)C(=O)c1ccccc1S2(=O)=O | -19% | 7%
CC[C@@H](CO)C1CC2NC3CC4(c5ccccc5N(C)[C@@H]24)C(O)C31 (some centres not stated) | -13% | -13%
Nc1nc2c(ncn2[C@@H]2O[C@H](CNS(=O)(=O)N3CCc4ccccc4C3)[C@@H](O)[C@H]2O)c(=O)[nH]1 | -11% | -1%
COc1ccc(-c2csc(NC(=O)CCNC(=O)c3ccco3)n2)cc1 | -22% | -5%

# Further records
# Values run as follows: StopGo reporter | RE007 growth inh
- CCOc1ccccc1NC(=O)c1ccc(OCC(=O)N2CCOCC2)c(OC)c1
    4% | -11%
- CCNC(=O)C1CCCN(C(=O)Cc2cccs2)CC1 (configuration not stated)
    -10% | -7%[18.4 µM]
- O=C(Nc1ccc(F)c(Cl)c1)c1cc(C2CCCN(S(=O)(=O)c3ccccc3)C2)on1 (configuration not stated)
    0% | 11%
- OCC1OC(n2cnc3c(SCc4ccccc4)nc(NO)nc32)C(O)C1O (configuration not stated)
    0% | -8%
- CC(C)C[C@H]1COCCS(=O)(=O)N1Cc1cccc(C(F)(F)F)c1
    -13% | -24%
- COc1ccccc1NC(=O)Nc1nnc([C@@H]2C[C@H](O)[C@@H](CO)O2)s1
    8% | 1%[18.4 µM]
- COCCNC(=O)C1(C(F)(F)F)CC(CCCO)CCCO1 (configuration not stated)
    8% | 3%
- CC1(Cc2ccc(Cl)c(Cl)c2)C(=O)Nc2ccc(S(=O)(=O)NC3CCCCC3)cc21 (configuration not stated)
    0% | 1%[18.4 µM]
- COC(=O)c1ccc2nc(-c3cccc(Br)c3)c(Cc3ccsc3)n2c1
    15% | -2%
- C[C@@H]1CN([C@@H](C)CO)C(=O)CCCn2cc(nn2)CO[C@H]1CN(C)S(=O)(=O)c1ccccc1
    -1% | 9%
- COCCCNCc1cc(C)n(-c2cc(S(=O)(=O)N3CCOCC3)ccc2N2CCCC2)c1C
    -17% | 4%
- CC(=O)Nc1cc(-c2ccc(N3CCN(C)CC3)cc2)cn2c(-c3ccccc3)cnc12
    -8% | -24%
- O=C1NC[C@H](CCCCN2C[C@H](Cc3ccccc3)N(CCC3CCCCC3)C(=O)C2=O)N(Cc2ccccc2)C1=O
    -1% | -19%
- O=C(NCc1ccc(OC(F)(F)F)cc1)C1CC(c2ccc(C(F)(F)F)cc2)=NO1 (configuration not stated)
    -18% | -15%
- CN(CCc1ccccc1)C(c1cc2ccccc2o1)c1nnnn1C(C)(C)C (configuration not stated)
    -26% | 3%

# Next section, starting with the last two of the part before.
# Values run as follows: StopGo reporter | RE007 growth inh
- O=C(NCc1ccc(OC(F)(F)F)cc1)C1CC(c2ccc(C(F)(F)F)cc2)=NO1 (configuration not stated)
    -18% | -15%
- CN(CCc1ccccc1)C(c1cc2ccccc2o1)c1nnnn1C(C)(C)C (configuration not stated)
    -26% | 3%
- O=C(NCc1ccccc1)C1c2ccccc2OCC(=O)N1Cc1ccc2c(c1)OCO2 (configuration not stated)
    -8% | 7%
- Cc1cn([C@H]2C[C@H](O)[C@@H](CNC(=O)[C@H](N)Cc3cccnc3)O2)c(=O)[nH]c1=O
    -22% | 10%
- Clc1cccc(CN2CCC3CC2c2cc(N4CCCCC4)ccc23)c1 (configuration not stated)
    0% | -22%
- COC(=O)C(N)CCCCN (configuration not stated)
    -15% | 6%
- Cc1cc(N2C(=O)C(O)=C(C(=O)c3ccc(C)o3)C2c2cccc(Cl)c2)no1 (configuration not stated)
    -29% | -2%
- Cn1nc(C(=O)NCC(=O)Nc2ccc(F)c(F)c2)ccc1=O
    -6% | 1%
- CN(Cc1ccccc1)C(=O)CCC1CCN(C(=O)c2ccco2)CC1
    0% | -14%
- COc1ccc(C(=O)OCC(=O)NC23CC4CC(CC(C4)C2)C3)c(O)c1
    -21% | -12%
- COC(=O)C1=C(c2ccc(S(C)(=O)=O)cc2)C[C@@H]2CC[C@H]1N2C(=O)N1CCOCC1
    -10% | -4%
- O=C1NC[C@H](CCCCN2C[C@H](Cc3ccccc3)N(Cc3ccccc3)C(=O)C2=O)N(CCc2ccc(O)cc2)C1=O
    -16% | 4%
- CN(CCc1ccccc1)C(=O)c1ccc(NC(=O)Cc2cccc(NC(=O)C3CCN(S(=O)(=O)c4cccc([N+](=O)[O-])c4)CC3)c2)cc1
    -20% | -14%
- Cc1ccc(Cc2c(-c3ccc(C)cc3)nc3c(C)cc(Br)cn23)cc1
    -20% | 1%
- COc1ccc(CCNC2=CC(=O)CCC2)cc1OC
    -18% | 1%
- OC(c1ccc(Cl)c(Cl)c1)c1ncc(-c2cccc(F)c2)[nH]1 (configuration not stated)
    30%[activator] | -21%
- COc1ccccc1CCC(=O)Nc1ccc2c(c1)c(=O)n(C)n2Cc1ccc(F)cc1
    -29% | 1%

# Remaining list, next part:
# Values run as follows: StopGo reporter | RE007 growth inh
- COc1cnc(-c2cccc(C(F)(F)F)c2)c(NC(=O)c2cc3ccccc3s2)n1
    u | 6%
- COc1ccc(NC(=O)c2cccc3c(-c4ccc(O)c(OC)c4)coc23)cc1
    -5% | 2%
- Cc1nnc(N2C(=O)C(=O)/C(=C(/O)c3ccc4c(c3)OCCO4)C2c2cccc([N+](=O)[O-])c2)s1 (configuration not stated)
    -10% | -5%
- COc1ccccc1NS(=O)(=O)c1cccc(NS(=O)(=O)c2cc(C(=O)O)ccc2Cl)c1
    -9% | 14%
- Cc1ccc(S(=O)(=O)N2CCN(C(=O)CN3C(=O)NC(C)(CCC(C)C)C3=O)CC2)c(C)c1 (configuration not stated)
    -22% | -1%
- O=S1(=O)CC(N2CCN(CCO)CC2)CN1Cc1cn(Cc2ccccc2)nn1 (configuration not stated)
    -16% | 4%
- CCO[C@@H]1OC(C(=O)NCc2nc3ccccc3[nH]2)=C[C@H](C(C)(C)C)[C@H]1CCCO
    -29% | -19%
- Cc1ccc(S(=O)(=O)Nc2ccccc2OC(C(=O)OC(C)(C)C)C(=O)OC(C)(C)C)cc1
    -24% | -3%
- CC#CCN1c2ccccc2[C@]23C[C@@H](C(=O)OC)N(C(=O)NC4CCCCC4)C2=NC(C(=O)OC)=C(C(=O)OC)[C@H]13
    -1% | -7%
- COc1cccc(C(NC(C)=O)c2nc(-c3ccc(C)c(C)c3)cs2)c1 (configuration not stated)
    -13% | 16%
- C[C@H](O)[C@@H]1C(=O)N2CCc3ccc(N4CCN(C)CC4)cc3[C@@H]2C[C@@H]1N(C)C(=O)c1cccnc1
    0% | 15%
- O=c1[nH]c(Sc2ccc([N+](=O)[O-])cc2[N+](=O)[O-])nc2ccccc12
    29% | 1%
- CCc1nc2c(OCCn3cccc3)cccn2c1N(C=O)Cc1ccc(OC)cc1
    -23% | -3%[18.4 µM]
- O=C(Nc1ccc(F)cc1)C(CCc1ccccc1)N1CCN(c2cccc(C(F)(F)F)n2)CC1 (configuration not stated)
    0% | -17%
- CC(C)NC(=O)C1(C)CN(S(C)(=O)=O)CC(=O)N1C1CC1 (configuration not stated)
    -17% | 0%

structure: CC[C@H](C)[C@H](NC(=O)OCc1ccccc1)C(=O)OCC(=O)N1CCN(c2ccc(OC)cc2)CC1
  StopGo reporter: -25%
  RE007 growth inh: -6%
structure: C[C@@H](NC(=O)c1ncn2c1c(=O)[nH]c1cccnc12)c1ccccc1
  StopGo reporter: -13%
  RE007 growth inh: 7%
structure: O=C(c1ccccc1)c1ccc(C(=O)N2CCN(c3ccccc3O)CC2)cc1
  StopGo reporter: u
  RE007 growth inh: 9%
structure: CCc1nc2c(OCc3ccccc3C)cccn2c1N(C)C(=O)c1ccc(C)cc1
  StopGo reporter: u
  RE007 growth inh: -22%
structure: COc1ccc(NC(=O)c2ccc(NC(=O)CN3CCN(c4ccccc4OC)CC3)cc2)cc1
  StopGo reporter: -22%
  RE007 growth inh: 2%
structure: COc1ccc(C(O)c2nc(-c3cccc(C(F)(F)F)c3)cs2)cc1 (configuration not stated)
  StopGo reporter: -13%
  RE007 growth inh: u
structure: CC1(c2nnnn2-c2ccc3c(c2)OCCO3)CCC(=O)N1CC(F)(F)F (configuration not stated)
  StopGo reporter: 23%
  RE007 growth inh: -12%
structure: O=c1[nH]cnc2c1ncn2C1OC(CO)CC1F (configuration not stated)
  StopGo reporter: -2%
  RE007 growth inh: -1%
structure: CCCCc1c(O)nc(SCC(=O)N2CCOCC2)n(-c2ccc(C)cc2)c1=O
  StopGo reporter: -5%
  RE007 growth inh: 13%
structure: Cc1cn([C@H]2C[C@H](O)[C@@H](CCC(=O)NC(c3ccccc3)c3ccccc3)O2)c(=O)[nH]c1=O
  StopGo reporter: -18%
  RE007 growth inh: 6%
structure: CC(C)C(=O)N1CCC1(C)C(=O)Nc1ccc(-n2cccc2)cc1 (configuration not stated)
  StopGo reporter: -11%
  RE007 growth inh: -11%
structure: COc1cc(Cl)ccc1OC1(C)CCN(Cc2cccc(OC)c2OC)C1 (configuration not stated)
  StopGo reporter: u
  RE007 growth inh: -25%[18.4 µM]
structure: OC(c1ccc(Cl)c(F)c1)c1ncc(-c2ccc(F)cc2)[nH]1 (configuration not stated)
  StopGo reporter: 20%
  RE007 growth inh: u
structure: COc1ccc(CNC(=O)C2Cc3c(-c4ccccc4)ccnc3O2)cc1OC (configuration not stated)
  StopGo reporter: -21%
  RE007 growth inh: 4%[18.4 µM]
structure: Brc1ccc2nc(C3CCCCC3)c(Cc3ccccc3)n2c1
  StopGo reporter: -10%
  RE007 growth inh: u

structure: COc1cccc(CNc2nc(NC(C)C)nc3ccsc23)c1
  StopGo reporter: u
  RE007 growth inh: 2%
structure: CN(C)CCNC(=O)C1(C)Cc2c(-c3cccc(C(F)(F)F)c3)ccnc2O1 (configuration not stated)
  StopGo reporter: -8%
  RE007 growth inh: 1%
structure: C[C@@H]1CCCCO[C@H](CN(C)S(=O)(=O)c2cccs2)[C@@H](C)CN([C@H](C)CO)C(=O)c2cc(NC(=O)Nc3ccc4c(c3)OCO4)ccc2O1
  StopGo reporter: u
  RE007 growth inh: -7%
structure: CCNC(=O)C1(C)CCCN1Cc1ccccc1Cl (configuration not stated)
  StopGo reporter: -16%
  RE007 growth inh: -15%
structure: C=C(C)Cn1c2ccc(NC(=O)CCc3cccc(Cl)c3)cc2c(=O)n1C
  StopGo reporter: -5%
  RE007 growth inh: 2%
structure: Brc1ccc2c(c1)-n1nncc1CN(CC1CCCCC1)C2
  StopGo reporter: -12%
  RE007 growth inh: -11%

# High-throughput results deposited in PubChem by National Center for Advancing Translational Sciences (NCATS).
